Screens (PubChem)
CtBP-E1A blk = qHTS Assay for Inhibitors of the CtBP/E1A Interaction; CtBP / adenovirus E1A interaction (AlphaScreen); AlphaScreen GST-E1A/His-CtBP binding, 1536-well; active compounds read low; control for the full effect not named in the record; activity change, % (concentration not given with the values); 340,000 tested, 0.49% active; AID 651724, 2012; in the data active means activity change below about -65%; inconclusive means about -30% to -65%; inactive means above about -30%; also: % is scaled to controls: 0 for no effect and ±100 for the full control effect
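Protein mix (5X: 125 nM each GST-E1A, His-CtBP) was incubated with pinned compound 2 h at 37 deg C in dark, in 50 mM Tris pH 8.0 buffer with 300 mM NaCl. Glutathione donor and nickel acceptor beads followed; AlphaScreen signal read after 1 h.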
TRPV1 potentiator = HTS Assay for Compounds that Act as Potentiators of the Vanilloid Receptor 1. TRPV1-expressing cells, Fluo-8 calcium influx, capsaicin EC20 potentiation; host cell line not named in the record; control for the full effect not named in the record. potentiation, % at 8.33 µM. 320,000 tested, 0.02% active. AID 540277, 2011; active means potentiation above 80%; inconclusive means 30% to 80%; inactive means below 30%; also: 0% is about no effect
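Fluo-8 calcium influx in TRPV1-expressing cells, kinetic read (ex 480/em 520 nm). Compound added and read 3 min for agonist activity, followed by capsaicin at EC20 final and 2 min further read for enhancement.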
TRPML1 ag = qHTS for Agonists of the Human Mucolipin Transient Receptor Potential 1 (TRPML1). Mucolipin-1 (Homo sapiens), Q9GZU1. activation, % (test concentration not listed). 410,000 tested, 0.12% active. TRPML1-expressing cells, Ca2+ dye fluorescence, FDSS; host cell line not named in the record; reference of the full effect not given here; in the data active = activation above about 50%; inconclusive = about 30% to 50%; inactive = below about 30%; also: 0% is about no effect; the text of the record puts the active cut at 80%
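In this qHTS format, compounds were pin-transferred onto Ca8-dye-loaded TRPML1-DL cells induced with Tet overnight, and intracellular Ca2+ fluorescence was recorded kinetically for 110 s after a 10 s baseline. A subsequent 4uM final 54-4 (EC80) addition followed by a second 110 s read served as the antagonist phase.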
Six1-Eya2 blk = qHTS Assay for Inhibitors of the Six1/Eya2 Interaction; 360,000 tested, 0.56% active; Homeobox protein SIX1 (Homo sapiens) + Protein phosphatase EYA2 (Homo sapiens), …; AlphaScreen GST-Six1/His-Eya2 binding, biochemical; active compounds read low; control for the full effect not named in the record; activity change, % (concentration not given with the values); in the data active = activity change below about -65%; inconclusive = about -30% to -65%; inactive = above about -30%; also: % is scaled to controls: 0 for no effect and ±100 for the full control effect
Target sequence (O00167 whole entry, looked up): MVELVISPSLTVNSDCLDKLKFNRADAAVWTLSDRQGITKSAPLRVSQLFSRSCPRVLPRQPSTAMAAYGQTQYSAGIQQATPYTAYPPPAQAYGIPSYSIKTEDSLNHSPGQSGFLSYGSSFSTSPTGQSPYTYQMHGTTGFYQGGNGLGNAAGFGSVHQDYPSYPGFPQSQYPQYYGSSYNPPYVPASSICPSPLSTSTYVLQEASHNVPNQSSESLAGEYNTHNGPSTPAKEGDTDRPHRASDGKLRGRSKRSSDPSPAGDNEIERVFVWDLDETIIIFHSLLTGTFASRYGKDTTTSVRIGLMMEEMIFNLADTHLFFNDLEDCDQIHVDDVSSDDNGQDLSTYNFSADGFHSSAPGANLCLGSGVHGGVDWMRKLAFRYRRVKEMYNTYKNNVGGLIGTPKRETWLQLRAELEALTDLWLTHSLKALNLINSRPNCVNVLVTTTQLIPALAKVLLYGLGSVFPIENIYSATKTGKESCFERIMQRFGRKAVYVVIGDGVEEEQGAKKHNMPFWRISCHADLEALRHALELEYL
Target sequence (Q15475 whole entry, looked up): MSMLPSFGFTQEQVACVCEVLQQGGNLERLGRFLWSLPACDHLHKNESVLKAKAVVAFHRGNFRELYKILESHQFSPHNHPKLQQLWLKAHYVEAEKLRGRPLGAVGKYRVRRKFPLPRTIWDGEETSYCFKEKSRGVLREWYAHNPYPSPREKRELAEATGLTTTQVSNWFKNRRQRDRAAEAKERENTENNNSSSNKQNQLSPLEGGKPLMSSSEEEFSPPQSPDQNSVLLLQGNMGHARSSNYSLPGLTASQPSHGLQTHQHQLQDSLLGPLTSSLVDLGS
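AlphaScreen luminescence read after one hour at 37 °C in darkness. Pin-transferred compounds met GST-Six1 and His-Eya2 protein (5X stock 250 nM/500 nM) plus glutathione donor and Ni-chelate acceptor beads (5X, 50 ug/mL).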
D2 PAM = Beta-Arrestin HTS for Positive Allosteric Modulators of the Human D2 Dopamine Receptor: Potentiators. DiscoveRx D2 beta-arrestin cells, luminescence, 90 min; 100% = 57 uM dopamine signal. potentiation, % (no concentration beside the values). 360,000 tested, 0.23% active. D(2) dopamine receptor (Homo sapiens), P14416. AID 624464, 2012; active = potentiation of 50% or more; inconclusive = 30% to 50%; inactive = 30% or less;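 also: compound concentration not given in the record; tested on top of an EC20 dose of dopamine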
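D2 cells co-treated with compound plus 50 nM dopamine (EC20) for 90 min at 37 deg C to detect potentiation. Beta-arrestin recruitment was read as enzyme-fragment luminescence after 1 h at ambient temperature. Full response was set by 57 uM dopamine.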
TRPML1 inh = qHTS for Inhibitors of the Human Mucolipin Transient Receptor Potential 1 (TRPML1). Mucolipin-1 (Homo sapiens), Q9GZU1. TRPML1-inducible cells, Ca2+ dye fluorescence, FDSS; active compounds read low; inhibition of EC80 agonist-evoked calcium signal. activity change, negative = inhibition, % (concentration not given with the values). 390,000 tested, 0.02% active; in the data active means activity change below about -50%; inconclusive means about -30% to -50%; inactive means above about -30%;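 also: stimulus is agonist 54-4 at its EC80 concentration; % is scaled to controls: 0 for no effect and ±100 for the full control effect; the text of the record puts the active cut at -80%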
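Tet-induced TRPML1-DL cells loaded with Ca8 no-wash calcium dye were read kinetically on FDSS. Compound addition was followed by EC80 agonist 54-4 (4 uM final); inhibition was read over 110 s.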
Numbers without * were called inactive; ? = inconclusive; · = no result given; & = joins results of further samples. Not a hit list; 0.95% or so of the library scored in one or more.

SMILES | CtBP-E1A blk | TRPV1 potentiator | TRPML1 ag | Six1-Eya2 blk | D2 PAM | TRPML1 inh
Cc1cccc(CS(=O)(=O)Cc2ccc(C(=O)O)o2)c1 | 0 | 8 | -0.5 | 0 | -18 | -17
CC(C)CN1CCC(=O)N(CCO)CC1 | -8 | 24 | -0.5&0.4 | -18 | -5 | 16
CCOC(=O)c1c(CN(CC)CC)oc2cc(Br)c(O)cc12 | -26 | -6 | -0.8 | -6 | -2 | -15
COc1ccc(C(=O)Nn2c(SCC(=O)NC3CCCCC3)nc3ccccc3c2=O)cc1 | -27 | -26 | 1.2 | -14 | 5 | 38
O=C(CN(Cc1ccccc1)C(=O)CCl)c1cccc(Br)c1 | -2 | -31 | -0.5 | -2 | -9 | 41
Cc1cccc(C)c1OCCn1c(CCNC(=O)C2CCCCC2)nc2ccccc21 | · | -5 | 4.4 | · | · | 50
CC(C)N1C(=O)C(Cc2nc3ccccc3c(=O)n2-c2ccccc2)c2ccccc21 (stereo not given) | ? | -5 | 1.5 | -5 | -14 | 31
Cc1cnc(NC(=O)CC2OC(=O)c3ccccc32)s1 (stereo not given) | 4 | -5 | -0.1 | 1 | 2 | 3
O=C(CCn1[nH]c(=O)c2ccccc2c1=O)N1CCOCC1 | -1 | -1 | -0.3 | 2 | -7 | -19
Cc1ccc(-c2nnn(CC(=O)N(CCCO)C(C(=O)NC3CCCC3)c3ccc(F)cc3)n2)o1 (stereo not given) | 1 | -2 | -0.8 | -5 | 1 | 2
CC(C)[C@@H](COc1ccccc1)N1CCN(Cc2ccccc2)CCC1=O | 2 | -12 | 0.2&-0.8 | -6 | 6 | 12
CN1CCN(CC(O)(c2ccc(Cl)cc2)c2ccc(Cl)cc2)CC1 | -6 | 1 | 0.3 | 0 | -23 | 1
COc1ccc(N2CCC(CNC(=S)Nc3c(C)cccc3C)C2)cc1 (stereo not given) | ? | 9 | 0.3 | ? | -9 | 3
Cc1cccnc1NS(=O)(=O)c1cccc([N+](=O)[O-])c1 | 13 | -16 | 0.1 | -11 | 4 | 41
COc1nc2c(C)cccc2cc1-c1noc(-c2ccco2)n1 | 0 | -33 | 0.3 | 16 | -11 | 9
COc1ccc(S(=O)(=O)N2CCCCC2)cc1NC(=O)Cc1cccc(C(F)(F)F)c1 | -12 | -1 | 1.0 | 6 | -5 | 51
CCOC(=O)c1c(C)[nH]c(C)c1C(=O)COC(=O)c1cc2ccccc2cc1OC | 4 | 6 | 2.1 | -12 | -23 | 24
CC(C)(C)C1(c2ccccc2)NC(=O)N(CC(=O)N2CCOCC2)C1=O (stereo not given) | 6 | -34 | -0.1 | -1 | 10 | -8
CC(C)(CNC(=O)/C=C/c1ccc(F)cc1)CNC(=O)/C=C/c1ccc(F)cc1 | 4 | -2 | -0.7 | -2 | -4 | 4
O=C(CN1CCNCC1)Nc1ccc(Oc2ccccc2)cc1 | 1 | 6 | 0.1 | 1 | -2 | 47
CN(Cc1ccccc1)C(=O)CCC1CCN(C(=O)c2ccco2)CC1 | 3 | · | -0.8 | 1 | -7 | -7
CN1CCC(OC(=O)COc2ccccc2)CC1 | 10 | 7 | -0.5 | 6 | -2 | 2
CC(C)C(=O)Nc1cccc(-c2csc(-c3ccccc3)n2)c1 | 18 | 20 | 2.7 | 5 | -10 | -13
CC(=O)NC(Cc1ccccc1C)C(=O)NC1CCN(C(=O)NCc2ccccc2)CC1 (stereo not given) | -8 | -9 | -0.3 | 3 | -14 | -3
CC1(C)Cc2cccc(OCC(=O)OCC(=O)c3ccccc3)c2O1 | -3 | -7 | -0.2 | 1 | -3 | -13
CCOC(=O)C1(C)C(=O)CC2c3nc4ccccc4cc3CN2C1=O (stereo not given) | -15 | · | 0.3 | -7 | -44 | 9
CC1CCCC(C)N1C(=O)Nc1cccc(Cl)c1 (stereo not given) | 7 | 23 | 0.3 | 0 | 5 | 11
CC1CC(C)(C)CC2(C1)NC(=O)N(CC(=O)Nc1c(F)cccc1F)C2=O (stereo not given) | 2 | 0 | -0.3 | 5 | -1 | -11
COc1ccc(C2OCC3(O)C(c4ccc(OC)c(OC)c4)OCC23)cc1OC (stereo not given) | 1 | 18 | -0.6 | 2 | 1 | -7
O=C(COC(=O)/C=C/c1ccc(F)cc1)NCC1CCCO1 (stereo not given) | -2 | · | -0.6 | 1 | -3 | -8

A section of the results above, for reference:
SMILES | CtBP-E1A blk | TRPV1 potentiator | TRPML1 ag | Six1-Eya2 blk | D2 PAM | TRPML1 inh
CC(C)CN1CCC(=O)N(CCO)CC1 | -8 | 24 | -0.5&0.4 | -18 | -5 | 16
CCOC(=O)c1c(CN(CC)CC)oc2cc(Br)c(O)cc12 | -26 | -6 | -0.8 | -6 | -2 | -15
COc1ccc(C(=O)Nn2c(SCC(=O)NC3CCCCC3)nc3ccccc3c2=O)cc1 | -27 | -26 | 1.2 | -14 | 5 | 38
O=C(CN(Cc1ccccc1)C(=O)CCl)c1cccc(Br)c1 | -2 | -31 | -0.5 | -2 | -9 | 41
Cc1cccc(C)c1OCCn1c(CCNC(=O)C2CCCCC2)nc2ccccc21 | · | -5 | 4.4 | · | · | 50
CC(C)N1C(=O)C(Cc2nc3ccccc3c(=O)n2-c2ccccc2)c2ccccc21 (stereo not given) | ? | -5 | 1.5 | -5 | -14 | 31
Cc1cnc(NC(=O)CC2OC(=O)c3ccccc32)s1 (stereo not given) | 4 | -5 | -0.1 | 1 | 2 | 3
O=C(CCn1[nH]c(=O)c2ccccc2c1=O)N1CCOCC1 | -1 | -1 | -0.3 | 2 | -7 | -19
Cc1ccc(-c2nnn(CC(=O)N(CCCO)C(C(=O)NC3CCCC3)c3ccc(F)cc3)n2)o1 (stereo not given) | 1 | -2 | -0.8 | -5 | 1 | 2
CC(C)[C@@H](COc1ccccc1)N1CCN(Cc2ccccc2)CCC1=O | 2 | -12 | 0.2&-0.8 | -6 | 6 | 12
CN1CCN(CC(O)(c2ccc(Cl)cc2)c2ccc(Cl)cc2)CC1 | -6 | 1 | 0.3 | 0 | -23 | 1
COc1ccc(N2CCC(CNC(=S)Nc3c(C)cccc3C)C2)cc1 (stereo not given) | ? | 9 | 0.3 | ? | -9 | 3
Cc1cccnc1NS(=O)(=O)c1cccc([N+](=O)[O-])c1 | 13 | -16 | 0.1 | -11 | 4 | 41

The listing continues.
SMILES | CtBP-E1A blk | TRPV1 potentiator | TRPML1 ag | Six1-Eya2 blk | D2 PAM | TRPML1 inh
COc1ccc(C2/C=C\CN(C(=O)Nc3ccccc3)CC(=O)N2Cc2ccc(F)cc2)cc1 (stereo not given) | -4 | -38 | 0.6 | 0 | -7 | 21
COc1ccc2c(c1)CC/C(=C\C=C\c1ccccc1OC)C2=O | -5 | -9 | 0.9 | -12 | 21 | 13
O=C(Cn1cnc2ccccc2c1=O)Nc1ccc2c(c1)OCCO2 | 0 | 22 | -0.8 | -3 | -18 | -8
CCC(=O)Nc1c(S(=O)(=O)c2ccc(C)cc2)c2nc3ccccc3nc2n1C(C)c1ccccc1 (stereo not given) | -2 | 1 | -0.1 | -4 | 26 | -4
CC(=O)Nc1ccc(NC2CCCCC2NS(=O)(=O)c2ccc(Cl)cc2)cc1 (stereo not given) | -4 | -2 | -0.8 | -2 | -17 | 6
CC(=O)NCCn1c(SCC(=O)NCCC2=CCCCC2)nc2ccccc2c1=O | 8 | -2 | -0.2 | -2 | -33 | -2
Cc1cccc(C(=O)N2CCCC(N3CCN(c4ccccc4F)CC3)C2)n1 (stereo not given) | 4 | 4 | -0.1 | -1 | -12 | -9
COc1ccc(Cl)cc1NC(=O)CN(C)C(=O)C1CCN(C(=O)Nc2ccccc2)CC1 | 3 | 1 | 1.7 | 4 | -8 | 22
CN1C(=O)C(=O)/C(=C(/O)c2ccccc2)C1c1ccc([N+](=O)[O-])cc1 (stereo not given) | 12 | 7 | 0.4 | -2 | 1 | -15
O=C1CC2(CCCCC2)Oc2ccc(F)cc21 | 17 | · | -0.4 | 11 | -11 | -5
Cn1c(/C(C#N)=N/O)nc2ccccc21 | -1 | 2 | 0.2 | -3 | -8 | 6
FC(F)Sc1ccc(NC(=S)NC2CCCC2)cc1 | 4 | -9 | 0.9 | 7 | -3 | 9
OCC1(CCc2ccccc2)CCN(Cc2cc(Cl)ccc2O)CC1 | 0 | -11 | -0.8 | -3 | -36 | 20
COCCCN1C(=O)C(CC(=O)NC2CCCCC2)CC(C(=O)N(C(C)C)C(C)C)=C1C (stereo not given) | 26 | · | -0.1 | 11 | -1 | ·
Cc1c(-c2ccc(F)cc2)nc(N)c(C#N)c1-c1ccco1 | 0 | 18 | 0.1 | 0 | -15 | -7
COc1cc(C(=O)NCC2CCCO2)cc(Br)c1OCc1ccccc1 (stereo not given) | 5 | -13 | 1.6 | 0 | 2 | 15
Fc1cccc(CN(C2=NCCN2)c2c(Cl)cccc2Cl)c1 | 0 | -12 | 1.0 | 5 | -17 | 31
COC(=O)c1cn(C(=O)OC)c2ccccc12 | 2 | -8 | 0.2 | 5 | -23 | -7
CCCCN(CCCC)CCNC(=O)CN1C(=O)COc2ccc(S(=O)(=O)N3CCOCC3)cc21 | 1 | -9 | -0.8 | 3 | -16 | -1
CS(=O)(=O)N(CC(=O)NCCSCc1ccccc1)c1ccccc1Br | 4 | 8 | -0.3 | -1 | -1 | 27
CCOc1ccc(/C=N/NC(=O)c2cc(-c3cccn3C)n[nH]2)cc1 | 9 | 24 | 2.4 | -18 | -12 | -11
CCOC(=O)COc1c(OC)cc(Cl)cc1C1Nc2ccccc2C(=O)N1c1ccc(F)cc1 (stereo not given) | 7 | 2 | 0.7 | 4 | 1 | -6
CCOC(=O)N1CCN(C(=O)C2CC(=O)N(c3ccc(C)cc3)C2)CC1 (stereo not given) | 5 | 17 | 0.2 | -1 | 2 | 3
O=C(NC(=S)Nc1cc([N+](=O)[O-])ccc1Cl)c1ccccc1 | -4 | -7 | -0.4 | -13 | -8 | 67
CC(C)NC(=O)C(=O)NCCCOC(C)C | 11 | -1 | 0.3 | 8 | -2 | -4
COc1cccc(C2CC(c3ccccc3)=NN2S(=O)(=O)c2ccc(C)cc2)c1OC (stereo not given) | -11 | 8 | 4.0 | -10 | -13 | 66
CN(C)Cc1cccc([N+](=O)[O-])c1O | -4 | 3 | · | 5 | -3 | ·
O=C(O)c1ccc(CNC(=O)c2ccc3c(c2)OCCO3)cc1 | -9 | 2 | -0.2 | -8 | -4 | -7
